MgrA-DNA mod: S. aureus MgrA-DNA binding modulation. inhibition, %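 (about 10 µg/mL by stock and volumes)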. AID 602314. 84,000 tested, 0.13% active. fluorescence polarization;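 active = above 50% in either of two replicates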;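 also: 0% = protein plus DNA without compound and 100% = DNA alone without protein; higher means less MgrA bound to DNA so lower polarization; one replicate is shown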
S aureus helic: blocks Staphylococcus aureus DNA helicase. purified S. aureus helicase, fluorescence unwinding assay; about half of the hits fall short of the stated cut. inhibition, %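 (tested at about 80 µM)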. 120,000 tested, 0.05% active;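 active = both duplicates at 50% or more, or one of them with a favoured structure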;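 also: 0% = mean of negative control wells and 100% = mean of positive control wells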
Active calls of the source: *; · = no result given; & = joins results of further samples. Not all compounds are listed; the hit share may differ from the screen's.

Sample of the layout, four compounds:
Below each SMILES – S aureus helic	MgrA-DNA mod
> O=C(COC(=O)c1cc(C(F)(F)F)cc(C(F)(F)F)c1)NC1CC1
    10	-1.2
> CCn1cc(C(=O)OCC(=O)NCc2ccco2)c(=O)c2ccc(C)nc21
    6	·
> COc1ccccc1CNCC(O)Cn1c2ccccc2c2ccccc21 (stereo not drawn)
    10	0.4
> Cc1ccccc1N1C=NC(=O)/C1=C\c1cccs1
    -8	2.4

Results, previewed entries included:
Below each SMILES – S aureus helic	MgrA-DNA mod
> O=C(COC(=O)c1cc(C(F)(F)F)cc(C(F)(F)F)c1)NC1CC1
    10	-1.2
> CCn1cc(C(=O)OCC(=O)NCc2ccco2)c(=O)c2ccc(C)nc21
    6	·
> COc1ccccc1CNCC(O)Cn1c2ccccc2c2ccccc21 (stereo not drawn)
    10	0.4
> Cc1ccccc1N1C=NC(=O)/C1=C\c1cccs1
    -8	2.4
> CCOc1ccccc1NC(=O)c1cccc(Cl)c1
    -2	·
> CCN(CC)C(=O)c1cc2sccc2n1Cc1ccc(F)cc1
    -7	0.8
> CCC(=O)NCC(c1ccco1)N1CCc2ccccc21 (stereo not drawn)
    10	·
> CN1CCN(c2nc3c(c(=O)n(C)c(=O)n3C)n2Cc2cccc(Br)c2)CC1
    ·	-1.1
> CCNC(=S)Nc1ccc(C)cc1
    -3	·
> CCNC(=O)NC1(C(=O)N2CCC(Cc3ccccc3)CC2)CCCCC1
    8	-3.3
> CC(C)(C)NC(=S)NCc1ccc2c(c1)OCO2
    -16	·
> O=C(CN(Cc1ccco1)C(=O)/C=C/c1ccco1)Nc1ccccc1Br
    -12	·
> CN(C)CCC(c1ccc(Br)cc1)c1ccccn1 (stereo not drawn)
    ·	-0.2&2.0
> COC(=O)CSc1nc(-c2cccs2)ccc1C#N
    -18	9.1
> CC1CCCC(C)N1C(=O)c1ccccc1C(=O)O (stereo not drawn)
    -20	·
> CCOC(=O)COc1ccc2c(c1)C(=O)CC1(CCCCC1)O2
    12	·
> CCCCc1ccc(-c2nc3ccccc3c(=O)o2)cc1
    17	·
> CCc1ccc(/C(N)=N/O)cc1
    15	·
> CCOC(=O)N1CCN(C(=O)c2cn(-c3ccc(OCC)cc3)c(=O)c3cc(OC)c(OC)cc23)CC1
    -23	·
> Oc1c(CN2CCN(c3ncccn3)CC2)cc(Cl)c2ccccc12
    -9	·

Below each SMILES – S aureus helic	MgrA-DNA mod
> O=C(Nc1cc(C(F)(F)F)ccc1Cl)C1COc2ccccc2O1 (stereo not drawn)
    ·	2.6
> COc1ccc(OC)c(C2CC(c3ccc(C)cc3)=NN2C(=O)CCCC(=O)O)c1 (stereo not drawn)
    ·	1.6
> COc1cccc(-c2cc(C(F)(F)F)nc(-n3cc(C)c(=O)[nH]c3=O)n2)c1
    13	0.8
> Cc1cc(C)c2oc(-c3cc(N)cc(C)c3O)nc2c1
    -1	-1.4
> CN(C)c1ccc(/C=N/NC(=O)C2SCCCS2)cc1
    -7	·
> CCC(=O)Nc1ccc(C(=O)Cn2c(=O)oc3ccccc32)cc1
    7	·
> O=CN1CCN(C(=O)c2ccc(F)cc2)CC1
    8	1.3
> C=CCNc1nnc(Cl)c2ccccc12
    -2	1.4
> Cc1ccc(NC(=S)NCc2ccncc2)cc1
    ·	-0.2
> CCOC(=O)c1c(C)n(C2CCCCC2)c2ccc(OCC(N)=O)cc12
    15	-3.5
> CC(NC(=O)COc1ccccc1)C(c1ccccc1)N1CCN(C)CC1 (stereo not drawn)
    6	0.6
> Cc1ccc(S(=O)(=O)c2nnn3c2nc(N2CCCC2)c2ccccc23)cc1
    14	-1.8
> O=C(CSc1nc2c(oc3ccccc32)c(=O)n1-c1ccccc1)Nc1ccccc1
    -20	·
> COC(=O)c1sc2ccccc2c1C(=O)OC
    11	·
> CC(C)(C)OC(=O)N1Cc2ccccc2CC1C(=O)NCCN1CCCCC1 (stereo not drawn)
    ·	-1.4
> C/C=C\C(=O)Nc1cc(-c2cn3cccnc3n2)ccc1C
    -7	·
> CCOC(=O)c1c(NC(C)=O)c2c3c(sc2n1Cc1ccc(F)cc1Cl)CCCC3
    10	2.0
> CCn1c(NCc2c[nH]c3ccccc23)nc2ccccc21
    3	·
> Cc1ccc(-c2nc(C3CCN(S(=O)(=O)c4ccc(C(C)(C)C)cc4)CC3)no2)cc1
    3	0.1
> Cc1ccc(Oc2ccccc2/C=C/C(=O)O)cc1
    ·	1.3

Below each SMILES – S aureus helic	MgrA-DNA mod
> CN1C(=O)/C(=C/c2cn(CC(=O)N3CCOCC3)c3ccccc23)c2ccccc21
    -45	·
> CN(C)c1ccc(C(=O)OCC(=O)N(C2CCCCC2)C2CCCCC2)cc1
    8	·
> CCCCCC(=O)n1c2ccc(F)cc2c2nc3ccccc3nc21
    ·	-1.7
> C=CCn1c(=NC(=O)CSC(C)=O)sc2ccccc21
    17	0.4
> OC(COCCC12CC3CC(CC(C3)C1)C2)CN1CCCC1 (stereo not drawn)
    -19	·
> O=c1nc(NCCO)ccn1-c1nc(-c2ccccc2)sc1-c1ccccc1
    -2	-6.9
> Cn1ccc2c(OCC(=O)c3ccccc3)cccc2c1=O
    5	·
> CC(=O)Nc1ccc(NC(=O)Nc2ccccc2)cc1
    ·	0.1
> Cc1ccc(C(=O)NCc2csc(-c3cccs3)n2)cc1C
    ·	-2.8
> CC(C)N=C(N)CCn1cnc2c1c(=O)n(C)c(=O)n2C
    -23	·
> C=CCNC(=O)CN1CCC(O)(c2ccccc2F)CC1
    6	16
> CN(Cc1cccs1)c1cc(=O)n2cc(Cl)ccc2n1
    7	·
> CCOC(=O)CC1(c2ccccc2)SC(NC(C)=O)=NN1C(C)=O (stereo not drawn)
    11	·
> O=C(Nc1ccc(Cl)cc1)c1ccn[nH]1
    3	1.5
> CC(c1ccccc1)c1nnc(NC(=O)c2ccc3c(c2)OCO3)s1 (stereo not drawn)
    14	·
> O=C(O)CCCNc1ccccc1C(=O)O
    -7	·
> CCOc1cccc2cc(C(=O)NCc3ccccc3)c(=N)oc12
    -7	·
> O=C(CSCc1ccccc1)Nc1cc(=O)[nH]c(=O)[nH]1
    17	·
> Cc1ccc(-c2nn(-c3ccccc3)cc2/C=C(\C#N)C(=O)Nc2ccc(SC(F)F)cc2)o1
    -383	·
> OC1(c2ccccc2)C/C(=N\n2cnnc2)C=C1c1ccccc1 (stereo not drawn)
    -21	0.8

Below each SMILES – S aureus helic	MgrA-DNA mod
> COc1ccc(NC2=NCCCCC2)nc1
    -43	·
> CC(C)(C)c1ccc(-c2nnco2)cc1
    10	-1.0
> O=C(NCC1CC1)c1cc(Br)cc(Br)c1O
    ·	0.0
> CC(=O)Nc1ccccc1OC(C)C(=O)N1CC(C)CC(C)C1 (stereo not drawn)
    -14	·
> O=C(Nc1cccnc1)C1c2ccccc2Oc2ccccc21
    4	1.8
> COc1c(C(=O)O)csc1Cl
    ·	-3.5
> CC1CC(C)(C)N(C=O)c2ccccc21 (stereo not drawn)
    0	2.2
> CC(C)CC(=O)NC1(C(F)(F)F)N=C2SCCN2C1=O (stereo not drawn)
    39	·
> O=C(CN1C(=O)C2C3C=CC(C3)C2C1=O)NCC1(N2CCCCC2)CCCCC1 (stereo not drawn)
    9	·
> COc1ccc2ncc(C(=O)c3ccccc3)c(N3CCCCC3)c2c1
    1	8.8
> CCC(=O)OCn1nnc2ccccc2c1=O
    20	·
> CN(C1CC2C=CC1C2)S(=O)(=O)c1cc(C(F)(F)F)cc(C(F)(F)F)c1 (stereo not drawn)
    ·	1.6
> C/C(=N\OCC(=O)Nc1cc(C)on1)c1cccs1
    -6	·
> CCn1c(SC)nnc1C1CCCN(C2CCC(C)CC2)C1 (stereo not drawn)
    16	-2.7
> Cc1sc2nc(C(C)Sc3nnc(CN4CCCC4)n3Cc3ccccc3)[nH]c(=O)c2c1C (stereo not drawn)
    -13	·
> Cc1ccc(-c2csc3nc(CN(C)C4CCN(C)CC4)[nH]c(=O)c23)cc1
    -3	·
> CCOC(=O)N=c1oc2ccccc2o1
    2	·
> O=c1c(Cc2ccccc2)coc2ccccc12
    ·	-3.3
> O=c1oc2ccccc2cc1-c1nc(-c2cccnc2)no1
    -24	·
> COc1cc(/C=C/C(=O)NC2CCCCC2)cc(S(=O)(=O)NCc2ccco2)c1OC
    6	·

Below each SMILES – S aureus helic	MgrA-DNA mod
> CC1=NN(c2ccccc2)C(=O)/C1=C/c1coc2ccccc2c1=O
    -6	·
> OC(CN1CCCCC1)c1ccc2cc[nH]c2c1 (stereo not drawn)
    5	·
> O=C(Cn1c(CCCO)nc2ccccc21)N1CCc2ccccc21
    -3	·
> O=c1s[nH]c2ccccc12
    ·	17
> Cc1ccccc1-c1nccc2ccccc12
    12	-1.8
> CC(C)(C)Cc1nc(C2(c3ccc(Cl)cc3Cl)CC2)no1
    ·	-0.6
> O=C(Nc1ccc(F)cc1)C1CC1
    ·	-2.1
> CCNC(=O)c1c(O)c2ccccc2n(CC)c1=O
    18	-3.1
> O=C(OCC(=O)N1CCCC1)c1cccc(Br)c1
    -24	2.1
> c1ccc(C2=Nc3ccccc3N=C(c3ccccc3)C2)cc1
    ·	-1.4
> CCOC(=O)c1[nH]c(C)c(C(=O)OCCOc2cccc(C)c2)c1C
    8	·
> Cc1ccc2c(c1)c1cccc3c1n2CCN3CCC(N)=O
    -17	0.6
> Cc1noc(C)c1COc1cccc(C(=O)N2CCc3ccccc32)c1
    3	·
> C1CCC[C@H]2CCCN3CC[C@H](CCCCCC[C@@H]4CCCN5CC[C@H](CC1)O[C@H]45)O[C@H]23
    ·	2.1
> CC1CCCCN1C(=O)c1cc2nc3c(c(C(F)(F)F)n2n1)CCc1ccccc1-3 (stereo not drawn)
    13	1.9
> CCc1nc(C)c(-c2ccccc2)c(=O)[nH]1
    18	2.7
> Nc1ccc(NC(=O)c2ccccc2O)cc1
    ·	-2.0
> NC(=O)Cn1c(=O)n(CCc2nc(-c3ccccc3)no2)c(=O)c2ccccc21
    -26	·
> CC1(C(=O)N2CCCCC2)CCC(C(=O)N2CCCCC2)C1(C)C (stereo not drawn)
    ·	-0.6
> Cc1c(C(=O)OCC#N)oc2ccc(Br)cc12
    -2	·

Below each SMILES – S aureus helic	MgrA-DNA mod
> CCOC(=O)NC1(Nc2ccccc2Cl)Oc2ccccc2O1
    11	1.1
> O=S(=O)(Nc1ccc(-c2nc3ccccc3o2)cc1)c1ccccc1
    1	0.2
> CC1(C)C2CCC1(CS(=O)(=O)NCc1ccc(C(F)(F)F)cc1)C(=O)C2 (stereo not drawn)
    ·	-0.8
> CN(C(=O)COC(=O)c1cccnc1Nc1cccc(C(F)(F)F)c1)C1CCS(=O)(=O)C1 (stereo not drawn)
    1	·
> Cc1cc(C)cc(NC(=O)NC(C)C2CCCO2)c1 (stereo not drawn)
    6	-1.4
> Cc1ccc(S(=O)(=O)c2nc(N3CCCC(C)C3)sc2Cl)cc1 (stereo not drawn)
    1	·
> COC(=O)c1cccc([N+](=O)[O-])c1-c1c(C(=O)OC)cccc1[N+](=O)[O-]
    ·	-0.4
> CCC(C#N)(c1ccccc1)c1ccc(N)cc1 (stereo not drawn)
    ·	2.7
> Cn1[nH]c(=O)c2cc(Cl)c(Cl)cc2c1=O
    -17	·
> Nc1ccc(-c2nc3ccccc3s2)cc1
    0	-2.2
> Cc1sc(N)c(C(=O)c2ccc(Cl)cc2)c1C
    ·	-2.9
> COc1cc(-c2nc3sc4c(c3c(=O)[nH]2)CCCC4)ccc1OCc1cc(=O)n2nc(C)sc2n1
    -14	·
> CC(C)(C)C1CCc2nc(NC(=O)CC#N)sc2C1 (stereo not drawn)
    -12	·
> C=C(C)CSC1=C(C#N)C2(CCCCC2)C(C#N)C(=O)N1 (stereo not drawn)
    -1	·
> CCC1OC(c2cccc(OC)c2)=Nc2ccccc21 (stereo not drawn)
    6	-3.5
> Cc1nn(-c2ccccc2)c2nc(C(F)(F)F)[nH]c(=O)c12
    -19	1.4
> O=C(CC1(C(=O)O)CCCC1)N1CCOCC1
    -12	·
> Cc1cc(C)cc(N2C(=O)CC(N(C(=O)c3ccco3)c3cc(C)cc(C)c3)C2=O)c1 (stereo not drawn)
    12	5.6
> S=C(Nc1cccc(Cl)c1)N1CCCc2ccccc21
    ·	1.8
> CCOC(=O)c1sc(S(C)=O)c2c1CCCC2=O (stereo not drawn)
    26	·

Single records, from the list above. Order of screens: S aureus helic | MgrA-DNA mod
CCC1OC(c2cccc(OC)c2)=Nc2ccccc21 (stereo not drawn) in the list: 6 | -3.5
COC(=O)c1cccc([N+](=O)[O-])c1-c1c(C(=O)OC)cccc1[N+](=O)[O-] in the list: · | -0.4
COc1cc(-c2nc3sc4c(c3c(=O)[nH]2)CCCC4)ccc1OCc1cc(=O)n2nc(C)sc2n1 in the list: -14 | ·
CC1(C)C2CCC1(CS(=O)(=O)NCc1ccc(C(F)(F)F)cc1)C(=O)C2 (stereo not drawn) in the list: · | -0.8
CC(C)(C)C1CCc2nc(NC(=O)CC#N)sc2C1 (stereo not drawn) in the list: -12 | ·

Continuation:
Below each SMILES – S aureus helic	MgrA-DNA mod
> CC1(O)c2ccccc2C(=O)N1CCc1cccc2ccccc12 (stereo not drawn)
    9	5.3
> COc1ccc2nc(NC(=O)CCCN3C(=O)C4C5C=CC(C5)C4C3=O)sc2c1 (stereo not drawn)
    16	·
> Cc1cc(NC(=O)Cn2nc3c(cc2=O)CCCC3)ccc1Br
    -9	·
> Cc1sc(NC(=O)CCC(=O)O)c(C#N)c1C
    -23	·
> CCOC(=O)c1c(CN2CCN(C)CC2)n(-c2ccccc2)c2cc(Br)c(O)cc12
    ·	-1.4
> COc1cccc(/C([O-])=N\c2c[n+](-c3ccc(C)cc3)no2)c1
    -13	3.5
> CC1CCC(NC(=O)c2oc(=O)c3ccccc3c2-c2ccccc2)CC1 (stereo not drawn)
    15	4.0
> CC(C)NC(=O)CSc1ccccc1C(=O)Nc1ccc(-n2cnnn2)cc1
    -3	·
> NC(=S)N/N=C/c1c[nH]c2ccccc12
    -9	·
> CCN(CC)S(=O)(=O)c1ccc(N2CC(C)OC(C)C2)nc1 (stereo not drawn)
    -16	·

Source: PubChem (ICCB-Longwood Screening Facility, Harvard Medical School)
